UUG fidelity: modulators of start codon recognition fidelity in yeast; S. cerevisiae UUG-firefly luciferase reporter, luminescence/redox ratio; activity score, % at 18.7 µM; 350,000 compounds, 0.13% hits; AID 602363;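 active = replicate mean at a twofold rise or more, about +100% in these data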;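 also: firefly luciferase made from a UUG start codon reports start codon fidelity; reporter light over untreated wells divided by growth signal over untreated wells; some hits fall short of that in this replicate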
Env fusion inh: inhibitors of HIV Env-mediated cell fusion | HeLa-JRFL Env/CEM21 cell fusion, luciferase | 360,000 compounds, 1.1% hits | inhibition, % at 12.3 µM;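 active = mean replicate inhibition score of at least 50 and every replicate individually at or above 50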;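 also: 0% = plate neutral controls and 100% = maraviroc near 300 nM; one replicate is shown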
The depositor's hits bear a star; [ ] = dose if it differs, or a comment. Some of the compounds tested, so the mix of outcomes need not match the whole.

SMILES | UUG fidelity | Env fusion inh
C[C@@H]1CN([C@H](C)CO)C(=O)c2cc(-c3ccc(F)cc3)cnc2O[C@H]1CN(C)CC1CCCC1 | 13 | 22[16.7 µM]
COc1ccc(S(=O)(=O)N(C)C[C@@H]2OCCCC[C@H](C)Oc3ccc(N(C)C)cc3C(=O)N([C@@H](C)CO)C[C@H]2C)cc1 | 3 | 13[16.7 µM]
C[C@@H]1CN([C@@H](C)CO)C(=O)c2cc(NS(=O)(=O)c3ccc(Cl)cc3)ccc2O[C@@H](C)CCCCO[C@@H]1CN(C)S(=O)(=O)c1ccc(Cl)cc1 | -12 | -55[16.7 µM]
C[C@@H](O)C#Cc1ccc2c(c1)O[C@@H](CN(C)C(=O)C1CCC1)[C@@H](C)CN([C@@H](C)CO)S2(=O)=O | 10 | -24[16.7 µM]
Cc1noc(C)c1S(=O)(=O)Nc1ccc2c(c1)C(=O)N([C@H](C)CO)C[C@H](C)[C@H](CN(C)Cc1ccc(Cl)c(Cl)c1)OCCCC[C@@H](C)O2 | 11 | -38[16.7 µM]
CNC(=O)C[C@H]1CC[C@H]2[C@@H](COc3ccc(NC(=O)C(C)C)cc3C(=O)N2C)O1 | -8 | 6[16.7 µM]
C[C@@H]1CN([C@@H](C)CO)C(=O)c2cc(NS(=O)(=O)c3ccc(F)cc3)ccc2O[C@@H](C)CCCCO[C@H]1CN(C)C(=O)Nc1ccc(F)cc1 | -2 | -212[16.7 µM]
C[C@H](CO)N1C[C@H](C)[C@H](CN(C)S(=O)(=O)c2ccc(F)cc2)Oc2ncc(-c3cccc(C(=O)N(C)C)c3)cc2C1=O | -7 | -26[16.7 µM]
C[C@@H]1CN([C@H](C)CO)C(=O)Cc2cc(NC(=O)Cc3ccccc3)ccc2O[C@@H]1CN(C)S(=O)(=O)c1cccs1 | 27 | -2[16.7 µM]
C[C@H]1CN([C@@H](C)CO)C(=O)Cc2cc(NC(=O)Cc3cn(C)c4ccccc34)ccc2O[C@@H]1CN(C)C(=O)Nc1cccc2ccccc12 | -10 | 5[16.7 µM]
C[C@H]1CN([C@@H](C)CO)C(=O)CCCn2cc(nn2)CO[C@@H]1CN(C)C | 15 | 4[16.7 µM]
C[C@@H]1CCCCO[C@H](CN(C)Cc2ccc(C(=O)O)cc2)[C@@H](C)CN([C@H](C)CO)C(=O)c2cc(NC(=O)Nc3ccc4c(c3)OCO4)ccc2O1 | 6 | 5[16.7 µM]
O=C(CN1CCOCC1)NCC[C@@H]1CC[C@H](NC(=O)Nc2ccc(F)cc2)[C@@H](CO)O1 | -3 | -6[16.7 µM]
C[C@@H]1CN([C@@H](C)CO)C(=O)c2cc(NC(=O)Nc3ccc(F)cc3)ccc2O[C@H]1CN(C)S(=O)(=O)c1ccc(F)cc1 | -2 | 20[16.7 µM]
C[C@@H]1CN([C@H](C)CO)C(=O)c2cc(C#CC3CCCC3)cnc2O[C@H]1CN(C)C(=O)c1ccncc1 | -3 | -5[16.7 µM]
C[C@@H]1CCCCO[C@@H](CN(C)C(=O)Nc2ccccc2)[C@H](C)CN([C@@H](C)CO)C(=O)c2cc(NC(=O)Nc3ccc(F)cc3)ccc2O1 | -18 | -11[16.7 µM]
C[C@@H]1CCCCO[C@H](CN(C)C(=O)Nc2ccc(F)cc2)[C@H](C)CN([C@@H](C)CO)C(=O)c2cc(NS(=O)(=O)c3ccccc3)ccc2O1 | -8 | 14[16.7 µM]
C[C@H]1CN([C@@H](C)CO)C(=O)c2cccc(NC(=O)NC3CCCCC3)c2O[C@H]1CN(C)CC1CCCCC1 | -5 | -15[16.7 µM]
C[C@@H]1CCCCO[C@H](CN(C)S(=O)(=O)c2cccs2)[C@@H](C)CN([C@H](C)CO)C(=O)c2cc(NC(=O)Nc3cccc4ccccc34)ccc2O1 | 0 | 20[16.7 µM]
O=C(Cc1ccccc1)N[C@H]1CC[C@H](CC(=O)N2CCCCC2)O[C@H]1CO | -5 | 16[16.7 µM]
C[C@@H]1CN([C@@H](C)CO)S(=O)(=O)c2ccc(C#Cc3cccc(F)c3)cc2O[C@@H]1CN(C)S(=O)(=O)c1ccccc1F | -11 | 0[16.7 µM]
CC(C)NC(=O)N[C@H]1CC[C@@H](CCNC(=O)C2CCC2)O[C@H]1CO | -4 | 5[16.7 µM]
C[C@@H]1CN([C@H](C)CO)C(=O)c2cc(NS(=O)(=O)c3ccc(F)cc3)ccc2O[C@@H](C)CCCCO[C@@H]1CN(C)Cc1ccncc1 | 17 | 6[16.7 µM]
Cc1ccc(S(=O)(=O)NCC[C@H]2CC[C@@H](NC(=O)c3cnccn3)[C@@H](CO)O2)cc1 | 25 | -18[16.7 µM]
O=C(Nc1ccccc1F)N[C@H]1CC[C@@H](CCNC(=O)C2CCC2)O[C@H]1CO | -7 | -5[16.7 µM]

Rewritten with each value named: 2 of the compounds above
> COc1ccc(S(=O)(=O)N(C)C[C@@H]2OCCCC[C@H](C)Oc3ccc(N(C)C)cc3C(=O)N([C@@H](C)CO)C[C@H]2C)cc1
  UUG fidelity: 3
  Env fusion inh: 13[16.7 µM]

> C[C@@H]1CN([C@@H](C)CO)C(=O)c2cc(NS(=O)(=O)c3ccc(Cl)cc3)ccc2O[C@@H](C)CCCCO[C@@H]1CN(C)S(=O)(=O)c1ccc(Cl)cc1
  UUG fidelity: -12
  Env fusion inh: -55[16.7 µM]

New compounds follow
SMILES | UUG fidelity | Env fusion inh
COc1ccccc1NC(=O)N[C@H]1C=C[C@H](CC(=O)N[C@H](C)c2ccccc2)O[C@H]1CO | -3 | -22[16.7 µM]
C[C@@H]1CN([C@H](C)CO)C(=O)c2cc(-c3cccnc3)cnc2O[C@@H]1CN(C)C(=O)C1CC1 | -8 | -1[16.7 µM]
C[C@@H]1CCCCO[C@@H](CN(C)CC2CC2)[C@@H](C)CN([C@H](C)CO)C(=O)c2cc(NC(=O)Nc3cccc4ccccc34)ccc2O1 | 3 | -1[16.7 µM]
CO[C@@H]1CN(C)C(=O)c2cc(NS(=O)(=O)c3ccccc3C)ccc2OC[C@H](C)N(S(C)(=O)=O)C[C@H]1C | 7 | -22[16.7 µM]
C[C@@H]1CN([C@H](C)CO)C(=O)c2cc(NC(=O)NC3CCCCC3)ccc2O[C@@H](C)CCCCO[C@H]1CN(C)Cc1ccc2c(c1)OCO2 | 7 | 21[16.7 µM]
O=C(Nc1ccc(C(F)(F)F)cc1)N[C@H]1CC[C@@H](CCNC(=O)c2ccccc2F)O[C@H]1CO | 19 | -1[16.7 µM]
CN(C)CCCNC(=O)C[C@@H]1CC[C@H](NS(=O)(=O)c2ccc(F)cc2)[C@H](CO)O1 | -13 | 6[16.7 µM]
COc1ccc(S(=O)(=O)Nc2ccc3c(c2)CC(=O)N([C@H](C)CO)C[C@H](C)[C@H](CN(C)CC2CC2)O3)cc1 | 5 | 5[16.7 µM]
C[C@@H]1CN([C@H](C)CO)C(=O)Cc2cc(NS(=O)(=O)c3cccs3)ccc2O[C@H]1CN(C)C(=O)Nc1ccc(C(F)(F)F)cc1 | -2 | 7[16.7 µM]
C[C@H]1CN([C@@H](C)CO)C(=O)c2cc(C#CCN(C)C)cnc2O[C@@H]1CN(C)S(=O)(=O)c1ccccc1 | 2 | -2[16.7 µM]
COc1cccc(-c2ccc3c(c2)O[C@H](CN(C)C(=O)C2CC2)[C@@H](C)CN([C@@H](C)CO)S3(=O)=O)c1 | 13 | -5[16.7 µM]
C[C@@H]1CN([C@@H](C)CO)S(=O)(=O)c2ccc(C#Cc3ccc(F)cc3)cc2O[C@@H]1CN(C)S(=O)(=O)c1ccc(F)cc1 | -39 | 30[16.7 µM]
COc1ccc(S(=O)(=O)Nc2ccc3c(c2)CC(=O)N([C@H](C)CO)C[C@@H](C)[C@H](CN(C)C(=O)NC(C)C)O3)cc1 | 14 | 0[16.7 µM]
C[C@@H]1CCCCO[C@H](CN(C)C(=O)c2ccccc2)[C@H](C)CN([C@H](C)CO)C(=O)c2cc(NS(=O)(=O)c3cn(C)cn3)ccc2O1 | 4 | -7[16.7 µM]
C[C@H]1CN([C@@H](C)CO)C(=O)c2cc(NC(=O)Nc3cccc4ccccc34)ccc2O[C@H]1CN(C)Cc1ccc2c(c1)OCO2 | -5 | 16[16.7 µM]
C[C@H](CO)N1C[C@H](C)[C@H](CN(C)Cc2ccc(Oc3ccccc3)cc2)Oc2c(NC(=O)c3nc4ccccc4s3)cccc2C1=O | 14 | 8[16.7 µM]
COc1ccc(NC(=O)N(C)C[C@@H]2OCCCC[C@H](C)Oc3ccc(NC(=O)C4CCCCC4)cc3C(=O)N([C@@H](C)CO)C[C@@H]2C)cc1 | -2 | 1[16.7 µM]
C[C@@H]1CN([C@H](C)CO)C(=O)c2cc(NC(=O)C3CCCCC3)ccc2O[C@@H](C)CCCCO[C@@H]1CN(C)CC1CCCCC1 | 18 | -5[16.7 µM]
C[C@H](CO)N1C[C@H](C)[C@H](CN(C)C(=O)Nc2ccc(F)cc2)Oc2ccc(NS(=O)(=O)c3ccc(Cl)cc3)cc2CC1=O | -9 | -4[16.7 µM]
CNC[C@@H]1Oc2ccc(NS(=O)(=O)c3cccs3)cc2CC(=O)N([C@@H](C)CO)C[C@H]1C | 34 | -13[16.7 µM]
CCCNC(=O)N[C@@H]1C=C[C@@H](CC(=O)NC2CCC2)O[C@H]1CO | -10 | 5[16.7 µM]
COC(=O)C[C@@H]1CC[C@@H]2[C@H](COc3ccc(NC(=O)c4cccc(OC)c4)cc3C(=O)N2C)O1 | 11 | -6[16.7 µM]
C[C@@H]1CN([C@H](C)CO)S(=O)(=O)c2ccc(C#CC(C)(C)O)cc2O[C@H]1CN(C)C(=O)CC1CC1 | 0 | 22[16.7 µM]
C[C@@H]1CCCCO[C@H](CN(C)Cc2ccc(C(=O)O)cc2)[C@@H](C)CN([C@@H](C)CO)C(=O)c2cc(NS(=O)(=O)c3ccccc3)ccc2O1 | 0 | -2[16.7 µM]
Cc1noc(C)c1NC(=O)Nc1ccc2c(c1)CC(=O)N([C@@H](C)CO)C[C@H](C)[C@H](CN(C)C(=O)Nc1ccc(C(F)(F)F)cc1)O2 | 0 | -15[16.7 µM]

Continuation.
SMILES | UUG fidelity | Env fusion inh
C[C@@H]1CN([C@H](C)CO)C(=O)Cc2cc(NC(=O)C3CC3)ccc2O[C@@H]1CN(C)CC1CC1 | 2 | 9[16.7 µM]
C[C@@H]1CN([C@@H](C)CO)C(=O)c2cccc(NC(=O)Nc3ccccc3)c2O[C@H]1CN(C)Cc1ccc(Cl)c(Cl)c1 | 12 | 26[16.7 µM]
CN1C(=O)c2cc(NC(=O)C3CCOCC3)ccc2OC[C@@H]2O[C@H](CC(=O)NCc3ccccc3F)CC[C@@H]21 | -3 | 9[16.7 µM]
O=C(CCN1CCCCC1)N[C@@H]1CC[C@@H](CCn2cc(-c3ccccc3)nn2)O[C@@H]1CO | -9 | 75*[16.7 µM]
Cc1ccccc1CN(C)C[C@@H]1OCc2cn(nn2)CCCC(=O)N([C@@H](C)CO)C[C@H]1C | 3 | -23[16.7 µM]
COCC(=O)N(C)C[C@H]1Oc2ncc(Br)cc2C(=O)N([C@H](C)CO)C[C@H]1C | 4 | 80*[16.7 µM]
C[C@H](CO)N1C[C@H](C)[C@H](CN(C)Cc2ccccn2)Oc2ncc(C#CCc3ccccc3)cc2C1=O | -16 | 29[16.7 µM]
C[C@@H]1CN([C@H](C)CO)C(=O)c2cccc(NC(=O)C3CC3)c2O[C@@H]1CN(C)Cc1ccc(C(=O)O)cc1 | -3 | 9[16.7 µM]
Cc1noc(C)c1NC(=O)N(C)C[C@H]1Oc2ccc(NC(=O)C3CCCCC3)cc2CC(=O)N([C@H](C)CO)C[C@@H]1C | 3 | 2[16.7 µM]
C[C@@H]1CCCCO[C@H](CN(C)S(=O)(=O)c2cccs2)[C@@H](C)CN([C@@H](C)CO)C(=O)c2cc(NC(=O)Cc3ccccc3)ccc2O1 | -8 | -19[16.7 µM]
C[C@H](CO)N1C[C@H](C)[C@H](CN(C)S(=O)(=O)c2ccc(F)cc2)OCCCC[C@H](C)Oc2ccc(NS(=O)(=O)c3cn(C)cn3)cc2C1=O | -2 | -15[16.7 µM]
C[C@@H]1CCCCO[C@H](CN(C)Cc2ccc(Cl)c(Cl)c2)[C@H](C)CN([C@@H](C)CO)C(=O)c2cc(NC(=O)Nc3ccc(C(F)(F)F)cc3)ccc2O1 | -15 | 0[16.7 µM]
CCCNC(=O)C[C@@H]1CC[C@H]2[C@H](COc3ccc(NC(=O)Nc4cccc(C)c4)cc3C(=O)N2C)O1 | 11 | -3[16.7 µM]
CCCNC(=O)N(C)C[C@H]1Oc2cc(C#Cc3ccccn3)ccc2S(=O)(=O)N([C@@H](C)CO)C[C@@H]1C | 6 | -48[16.7 µM]
COc1ccc(NC(=O)N(C)C[C@@H]2OCc3cnnn3CCCC(=O)N([C@@H](C)CO)C[C@@H]2C)cc1 | -2 | 14
CN(C)C(=O)C[C@@H]1C[C@@H]2c3cc(NC(=O)C4CCC4)ccc3O[C@@H]2[C@@H](CO)O1 | 5 | 28[16.7 µM]

3 compounds drawn at random from those above:
SMILES | UUG fidelity | Env fusion inh
C[C@@H]1CCCCO[C@H](CN(C)S(=O)(=O)c2cccs2)[C@@H](C)CN([C@@H](C)CO)C(=O)c2cc(NC(=O)Cc3ccccc3)ccc2O1 | -8 | -19[16.7 µM]
COCC(=O)N(C)C[C@H]1Oc2ncc(Br)cc2C(=O)N([C@H](C)CO)C[C@H]1C | 4 | 80*[16.7 µM]
C[C@H](CO)N1C[C@H](C)[C@H](CN(C)Cc2ccccn2)Oc2ncc(C#CCc3ccccc3)cc2C1=O | -16 | 29[16.7 µM]

Single entries from the list:
Cc1ccccc1CN(C)C[C@@H]1OCc2cn(nn2)CCCC(=O)N([C@@H](C)CO)C[C@H]1C – Env fusion inh = -23[16.7 µM]
Cc1noc(C)c1NC(=O)N(C)C[C@H]1Oc2ccc(NC(=O)C3CCCCC3)cc2CC(=O)N([C@H](C)CO)C[C@@H]1C – Env fusion inh = 2[16.7 µM]
